GIRK2 activ: activators of human GIRK2 potassium channels. G protein-activated inward rectifier potassium channel 2 (Homo sapiens), P48051. HEK293-GIRK2 thallium flux, Thallos fluorescence. calls only for hits at 25 µM. actives 0.05% (n = 63,000). AID 1259325, 2017;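 active = among the strongest 0.2% of first-round signals and kept after retests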;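 also: first round at about 10 µM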
Target sequence (P48051 whole entry, looked up): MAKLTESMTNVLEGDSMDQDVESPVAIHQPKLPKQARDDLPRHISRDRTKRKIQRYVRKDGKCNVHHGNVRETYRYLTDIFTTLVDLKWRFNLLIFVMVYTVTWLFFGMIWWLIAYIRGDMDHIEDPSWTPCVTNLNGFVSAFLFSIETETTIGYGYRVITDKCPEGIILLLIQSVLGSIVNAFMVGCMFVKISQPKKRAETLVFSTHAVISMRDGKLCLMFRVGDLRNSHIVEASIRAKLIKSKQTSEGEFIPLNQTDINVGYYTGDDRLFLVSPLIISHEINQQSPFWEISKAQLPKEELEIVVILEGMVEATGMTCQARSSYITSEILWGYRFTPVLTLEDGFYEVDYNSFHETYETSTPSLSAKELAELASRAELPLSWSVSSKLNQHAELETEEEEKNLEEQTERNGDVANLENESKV
Calls only; i = inactive. Only part of the results is shown (hit frequency here may not be typical).

SMILES | GIRK2 activ
O=C(Nc1cccc(O)c1)c1c[nH]c2ccccc2c1=O | i
Cc1csc(-c2nnc(Nc3ccc(Oc4ncccc4-c4ccnc(N)n4)cc3)c3ccccc23)c1 | i
CCCCC[C@H](O)/C=C/[C@H]1C(=O)C[C@H](O)[C@@H]1C/C=C\CCCC(=O)OCC(O)CO (some centres undefined) | i
O=C(Nc1cc(OCc2ccc3c(c2)OCO3)ncn1)c1ccc(Cn2ccnc2)cc1 | i
O=C(c1ccncc1)N1CCC(CNS(=O)(=O)c2cccc(Cl)c2)CC1 | i
O=C(NCC1CCN(S(=O)(=O)C2CC2)CC1)C(=O)Nc1cccc(N2CCCC2=O)c1 | i
Cc1nnc(C2CCCN(S(=O)(=O)c3ccc(Cl)cc3)C2)s1 (centres undefined) | i
Cc1ccc(NC(=O)CSc2nccnc2N2CCN(c3ccccc3)CC2)cc1 | i
O=C(Cc1noc2ccccc12)NCCn1nc(-n2ccnc2)ccc1=O | i
COc1ccc(NC(=O)Cn2nc3c(N4CCOCC4)nccn3c2=O)c(OC)c1 | i
c1cnc(N2CCN(c3nc4ccccc4s3)CC2)nc1 | i
O=C(c1ccco1)N1CCN(S(=O)(=O)N2CCCCC2)CC1 | i
CC(C)NC(=O)CCn1c(=O)c2cc(Cl)ccc2n2c(SCC(N)=O)nnc12 | i
O=C(Cc1c[nH]c2ccccc12)Nc1cc(N2CCN(c3ccccc3)CC2)ncn1 | i
CC1CN(Cc2ccccc2)c2nc3c(c(=O)n(CC(=O)O)c(=O)n3C)n2C1 (centres undefined) | i
CCn1c(=O)c(C(=O)NCCc2ccccc2)cc2cccnc21 | i
COc1ccc(CCC(=O)Nc2cc(N3CCOCC3)ncn2)cc1 | i
COc1ccc2c(CCNC(=O)CCc3ccc(-c4ccccc4)o3)c[nH]c2c1 | i
CCCCNC(=O)c1cnn2c(-c3ccc(C(C)C)cc3)ccnc12 | i
O=C(c1ccc(Br)o1)N(CCc1cccs1)C1CC1 | i
O=C(NCc1cccc2ccccc12)N(CCc1cccs1)C1CC1 | i
COC(=O)c1ccc(CN2CC(c3nc(-c4cccs4)no3)C2)cc1 | i
COC(=O)C1=C(CS(=O)(=O)c2ccc(C)cc2)NC(=O)NC1c1ccc(O)cc1 (centres undefined) | i
COc1ccc(OC)c2sc(N3CCN(C(=O)NC4CCCC4)CC3)nc12 | i
CCOC(=O)c1c(-n2cnnn2)sc2c1CCC(C)C2 (centres undefined) | i

By substructure, the compounds so far containing a halogen (four)
SMILES | GIRK2 activ
O=C(c1ccncc1)N1CCC(CNS(=O)(=O)c2cccc(Cl)c2)CC1 | i
Cc1nnc(C2CCCN(S(=O)(=O)c3ccc(Cl)cc3)C2)s1 (centres undefined) | i
CC(C)NC(=O)CCn1c(=O)c2cc(Cl)ccc2n2c(SCC(N)=O)nnc12 | i
O=C(c1ccc(Br)o1)N(CCc1cccs1)C1CC1 | i

(next part)
SMILES | GIRK2 activ
Cc1cc(NCCC2=CCCCC2)n2nc(C(F)(F)F)nc2n1 | i
COC(=O)CCn1c(=O)c2c(nc3oc(C(C)(C)C)cn32)n(C)c1=O | i
CC1CCN(c2nc3c(c(=O)n(C)c(=O)n3C)n2CC(=O)c2ccccc2)CC1 | i
COCCCNC(=O)CSc1nc(-c2cccc(OC)c2)[nH]c1-c1ccc(OC)cc1 | i
COCCCn1c(C(=O)O)cc2c(=O)n(C)c(=O)n(C)c21 | i
Cc1nnsc1C(=O)Nc1nc(-c2cc3ccccc3o2)cs1 | i
CCCCn1c(=O)[nH]c2c(C(=O)N3CCN(c4cc(C)ccc4C)CC3)snc2c1=O | i
COc1ccc(OC)c(S(=O)(=O)N2CCCC(c3nnc(C)s3)C2)c1 (centres undefined) | i
CCN1CCN(C(=O)CCn2c(=S)[nH]c3ccccc3c2=O)CC1 | i
Cc1nnc(SCC(=O)NCC2CCCO2)s1 (centres undefined) | i
COc1nc2c(c(=O)n(C)c(=O)n2C)n1CCc1ccccc1 | i
COCCNC(=O)c1c(N)n(/N=C\c2ccc(N(C)C)cc2)c2nc3ccccc3nc12 | i
CCCCc1ccc(NC(=O)Cn2nc(N3CCOCC3)c3ccccc3c2=O)cc1 | i
O=[N+]([O-])c1ccc(CSc2nnc(-c3cccs3)o2)cc1 | i
COc1ccc(-c2csc3c(=O)n(Cc4ccccc4C)cnc23)cc1OC | i
C[C@@H]1C(=O)O[C@H]2CC34[C@H]5C[C@@H](C(C)(C)C)C36[C@@H](OC(=O)[C@@H]6O)O[C@@]4(C(=O)O5)[C@]21O (some centres undefined) | i
COc1ccc(-c2csc(-n3nc(C)cc3NC(=O)c3c(F)cccc3Cl)n2)cc1OC | i
CCOc1ccc(CCNC(=O)CC2(CC3=NS(=O)(=O)c4ccccc4N3)CCCC2)cc1OCC | i
Cc1ccc(Cn2c(=O)c3c(N4CCN(C(=O)c5ccco5)CC4)c(C)cnc3n(C)c2=O)cc1 | i
CCOC(=O)COc1ccc2c(=O)c(-c3ccc(Cl)cc3)c(C)oc2c1 | i
COC(=O)c1sccc1S(=O)(=O)Nc1ccc(Cl)cc1Cl | i
CCOc1ccc(N2CCCn3c2nc2c3c(=O)n(CCN3CCCCC3)c(=O)n2C)cc1 | i
COCCNC(=O)NC1(c2nc(C)no2)CCCCC1 | i
CCOc1ccccc1-n1c(C)cn2c3c(=O)n(CC(C)=O)c(=O)n(C)c3nc12 | i
COc1cccc(-c2cc(C(=O)N3CC(c4nc5ccccc5[nH]4)C3)[nH]n2)c1 | i

The last 7 records of the part above come first, to join the parts.
SMILES | GIRK2 activ
Cc1ccc(Cn2c(=O)c3c(N4CCN(C(=O)c5ccco5)CC4)c(C)cnc3n(C)c2=O)cc1 | i
CCOC(=O)COc1ccc2c(=O)c(-c3ccc(Cl)cc3)c(C)oc2c1 | i
COC(=O)c1sccc1S(=O)(=O)Nc1ccc(Cl)cc1Cl | i
CCOc1ccc(N2CCCn3c2nc2c3c(=O)n(CCN3CCCCC3)c(=O)n2C)cc1 | i
COCCNC(=O)NC1(c2nc(C)no2)CCCCC1 | i
CCOc1ccccc1-n1c(C)cn2c3c(=O)n(CC(C)=O)c(=O)n(C)c3nc12 | i
COc1cccc(-c2cc(C(=O)N3CC(c4nc5ccccc5[nH]4)C3)[nH]n2)c1 | i
CC(C)(C)c1ccc(S(=O)(=O)NCC(=O)Nc2sc3c(c2C(N)=O)CCCC3)cc1 | i
Cc1ccc(-c2ccnc(SCC(=O)NCc3ccccc3)n2)cc1C | i
CCOc1ccc(-c2nc(Cn3nnc(C(=O)Nc4cc(F)ccc4C)c3N)c(C)o2)cc1 | i
COc1ccc(CCC(=O)Nc2ccc(Cn3cnc(C(=O)Nc4cccc(OC)c4)c3)cc2)cc1 | i
COCCn1c(=O)c2c(nc3n2CCCN3c2ccc(OC)cc2OC)n(C)c1=O | i
CCCNc1nc2c(c(=O)[nH]c(=O)n2C)n1CCC | i
CCOc1ccc(CC(=O)NCC2CCN(c3ccccn3)CC2)cc1 | i
COc1cccc(N2CC(c3nc4ccccc4n3Cc3ccccc3Cl)CC2=O)c1 (centres undefined) | i
CCCOc1ccc(/C=C/C(=O)Nc2ccc(N(C)C)cc2)cc1 | i
CCCCN1C(=O)CCc2cc(NC(=O)c3cccc(OC)c3)ccc21 | i
CCOc1ccc(-c2cc3c(=O)n(Cc4nc(-c5ccccc5)no4)ncn3n2)cc1 | i
CC1CC(=O)Nc2ccccc2N1C(=O)Cc1ccc(Cl)cc1 (centres undefined) | i
O=C(C1CC=CCC1)N1CCCC(COCc2ccccc2)C1 (centres undefined) | i
O=C(NC1CCN(Cc2ccccc2)CC1)c1cn(-c2ccc(Cl)cc2)nn1 | i
COc1ccc(CCNC(=O)c2cn(-c3ccc(C)cc3)nn2)cc1OC | i
Cc1ccc2c(c1)NC(C(=O)Nc1ccc(NC(=O)c3ccco3)cc1)NS2(=O)=O (centres undefined) | i
Cc1ccc(NC(=O)Oc2ccccc2)cc1N1CCCC1=O | i
COCCCn1c(-c2ccc(F)cc2)nc2oc3cc(OC)ccc3c(=O)c2c1=O | i
CCCCN1C(SCC(=O)Nc2ccccc2C(F)(F)F)=NS(=O)(=O)c2ccccc21 | i
O=C(COc1ccccc1F)Nc1ccccc1-c1ccc(=O)[nH]n1 | i
O=C(NCC1(CO)CC1)Nc1ccccc1C(F)(F)F | i
CCOC(=O)N1CCN(C(=O)CN(C)c2nc3c(OC)cccc3s2)CC1 | i
COc1ccccc1NC(=O)Cn1cccc(-c2nc(-c3ccc(Cl)cc3)no2)c1=O | i
O=C(CN1CC(c2nc(-c3ncccn3)no2)C1)Nc1ccccc1 | i
CCOc1ccc2nc(N(CCCn3ccnc3)C(=O)c3ccc(Cl)s3)sc2c1 | i
Remaining list, next part
SMILES | GIRK2 activ
O=C(Nc1nc2c(s1)CN(C(=O)/C=C/c1ccco1)CC2)C1CCCO1 (centres undefined) | i
Cc1ccc(-c2cc3c(=O)n(Cc4nc(-c5cccc(Br)c5)no4)ncn3n2)c(C)c1 | i
CC[C@H]1OC(=O)[C@H](C)[C@@H](O[C@H]2C[C@@](C)(OC)[C@@H](O)[C@H](C)O2)[C@H](C)[C@@H](O[C@@H]2O[C@H](C)C[C@H](N(C)C)[C@H]2O)[C@](C)(O)C[C@@H](C)CN(C)[C@H](C)[C@@H](O)[C@]1(C)O | i
CCCc1c(C(=O)NCc2ccco2)cnn1-c1nc(C)c(C)c(=O)[nH]1 | i
Cn1nc(C2CCN(Cc3c(F)cccc3Cl)CC2)n(-c2ccccc2)c1=O | i
CS(=O)(=O)C1CCN(C(=O)Nc2cccs2)C1 (centres undefined) | i
CCS(=O)(=O)Nc1ccc2c(c1)CCCN2S(=O)(=O)c1ccccc1 | i
CCOC(=O)Cn1c(=O)c2c(nc3n(-c4cc(C)ccc4OC)c(C)cn23)n(C)c1=O | i
COc1ccc2cc(Br)ccc2c1CC(=O)Nc1ncc([N+](=O)[O-])s1 | i
COc1ccc(NC(=O)N2CCN(c3cc(Nc4ccccn4)nc(C)n3)CC2)c(C)c1 | i
COc1ncc(C(=O)N2CCN(c3cccc(C)c3C)CC2)cn1 | i
O=C(NCc1ccc(C(O)c2cccs2)s1)c1ccc(Cl)s1 (centres undefined) | i
O=C1CCC(O)[C@@]23O[C@@]12C1(Oc2cccc4cccc(c24)O1)[C@@H]1O[C@@H]1[C@@H]3O (some centres undefined) | i
CCOC(=O)N1CCN(C(=O)c2coc(NC(=O)C3CC3)n2)CC1 | i
O=S(=O)(C1CC1)N(Cc1cnc2ccccn12)C1CC1 | i
O=C(CCS(=O)(=O)c1ccccc1)N1CC(c2nc(-c3cnccn3)no2)C1 | i
O=C(NN1CCOCC1)C1CCCN(c2ccc(-c3ccco3)nn2)C1 (centres undefined) | i
COC(=O)c1ccc(Cn2nc3ccc(-c4ccc(Cl)cc4)nn3c2=O)o1 | i
O=c1ccn(-c2ccccc2)nc1-c1nc(-c2cccc(C(F)(F)F)c2)no1 | i
CCCCNC(=O)c1cn(-c2ccc(C)c(C)c2)nn1 | i
Cc1cc(C(O)CCNC(=O)c2ccccc2C(F)(F)F)c(C)o1 (centres undefined) | i
Cc1nc(-c2ccccc2)sc1CNC(=O)C1CC=CCC1 (centres undefined) | i
C#CCCNC(=O)c1ccccc1 | i
Cn1cccc(C(=O)Nc2ccc3c(c2)C(=O)NCC3)c1=O | i
NC(=O)c1nnn(-c2ccc(NC(=O)c3ccco3)cc2)n1 | i
(list continues)
SMILES | GIRK2 activ
CC(=O)CC1(O)C(=O)N(CCCOc2ccc(Cl)cc2Cl)c2ccc(C)cc21 (centres undefined) | i
O=C(c1cc(C2CC2)on1)N1CCC(Oc2ccc(C(F)(F)F)cn2)CC1 | i
COCCCn1c(-c2ccccc2)nc2c(c(=O)c3ccccc3n2C)c1=O | i
Cc1ccc(S(=O)(=O)N2CCC3(CC2)OCCCO3)cc1Cl | i
O=C(CCSc1ccccc1)N1CCC(Cn2c(C(F)(F)F)nc3ccccc32)CC1 | i
COC(=O)C1C(=O)C2=C(CC1C)NC(C)=C(C(=O)OC(C)C)C2c1ccc(C)c([N+](=O)[O-])c1 (centres undefined) | i
COc1ccccc1-n1c(C)cn2c3c(=O)n(Cc4cccc(C)c4)c(=O)n(C)c3nc12 | i
CCC(NC(=O)c1nnn(-c2ccccc2Cl)c1-c1ccccn1)c1cccs1 (centres undefined) | i
CN1CCN(c2cc(NC(=O)Nc3ccc4c(c3)OCO4)ncn2)CC1 | i
NC(=O)CSc1nnc(N2CCN(C(=O)COc3ccccc3)CC2)s1 | i
COc1ccc(NC(=O)c2ccc(-n3cnnn3)cc2)cc1 | i
CN1CCc2nc(-c3ccccc3)n(CC(=O)Nc3cc(Cl)ccc3Cl)c(=O)c2C1 | i
O=C(Nc1cccs1)N(Cc1ccsc1)CC(F)(F)F | i
COc1ccc(NC(=O)Cn2nc3c4cccc(C)c4ncn3c2=O)cc1Cl | i
O=C(CSc1nc2c(-c3ccccc3)c[nH]c2c(=O)n1C1CC1)NCc1ccco1 | i
O=C(NCCOc1ccc(-c2ccc(F)cc2)nn1)C1COc2ccccc2O1 (centres undefined) | i
Cc1nn(CC(=O)Oc2ccc(Cl)cc2)c(C)c1Cl | i
CCCc1nnsc1C(=O)N1CCN(S(=O)(=O)C2CC2)CC1 | i
Cc1ccccc1-c1noc(-c2cccn(CC(=O)NC3CCCC3)c2=O)n1 | i
CCOc1ccc(N2C(=O)C3N=NN(Cc4nc(-c5ccc(Br)cc5)no4)C3C2=O)cc1 (centres undefined) | i
COc1ccccc1N1CCN(c2nnc(SCC(=O)NCc3ccc4c(c3)OCO4)s2)CC1 | i

Quoted at random: 3 entries already listed, in no set order.
SMILES | GIRK2 activ
COc1ccccc1N1CCN(c2nnc(SCC(=O)NCc3ccc4c(c3)OCO4)s2)CC1 | i
O=C(CCSc1ccccc1)N1CCC(Cn2c(C(F)(F)F)nc3ccccc32)CC1 | i
CN1CCN(c2cc(NC(=O)Nc3ccc4c(c3)OCO4)ncn2)CC1 | i
